Cruzain inh Det: qHTS Assay for Promiscuous and Specific Inhibitors of Cruzain (with detergent); purified cruzain, Z-FR-AMC fluorescence, 0.01% Triton; Potency, µM, for the others: max response, negative = inhibition, actives largely listed as inhibitors; Cruzipain (Trypanosoma cruzi), P25779; 200,000 compounds, 0.43% hits;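 further: plate controls were neutral wells for no effect and buffer without enzyme for full effect; nearly all actives have a fitted effect of over 40% in size; top concentration of the series not given in the record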
Target sequence (P25779 123-467 limits assumed): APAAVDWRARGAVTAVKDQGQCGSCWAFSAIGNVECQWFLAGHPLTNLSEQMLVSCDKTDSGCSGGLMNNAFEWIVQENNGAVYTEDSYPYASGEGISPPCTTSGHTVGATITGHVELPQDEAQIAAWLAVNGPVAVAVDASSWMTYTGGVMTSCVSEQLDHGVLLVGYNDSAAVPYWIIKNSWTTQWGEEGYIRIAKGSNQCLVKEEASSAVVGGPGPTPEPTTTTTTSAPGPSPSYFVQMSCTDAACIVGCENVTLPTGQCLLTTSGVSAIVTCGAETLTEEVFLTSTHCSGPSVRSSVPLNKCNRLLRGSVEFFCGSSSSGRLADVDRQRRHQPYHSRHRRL
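Purified cruzain (1.5 nM final) was preincubated with compounds for 15 min at room temperature in 100 mM sodium acetate pH 5.5, 5 mM DTT, 0.01% Triton X-100. Reaction started with 2 uM Z-FR-AMC; AMC fluorescence change over 60 s gave activity.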
SARS PLP yeast: qHTS of Yeast-based Assay for SARS-CoV PLP. S. cerevisiae expressing SARS-CoV PLpro, growth rescue; control for the full effect not named in the record. Potency, µM (doses to about 32.9 µM), for the others: at the top dose activity, positive = growth rescue. 330,000 compounds, 0.19% hits. AID 485353, 2010; active means well fitted rising curve with a large enough effect; inconclusive means small, poorly fitted or top-dose-only effect; inactive means no such curve, though single readings can be large or run the other way; further: 0% is about no effect; nearly all actives have a fitted effect of over 55% in size; growth read by luminescence after 48 h
Cruzain noTriton: qHTS Assay for Promiscuous and Specific Inhibitors of Cruzain (without detergent); 200,000 compounds, 2.3% hits; purified cruzain, Z-FR-AMC fluorescence, no detergent; Cruzipain (Trypanosoma cruzi), P25779; Potency, µM, for inactives: max response, negative = inhibition, most hits filed as inhibitors;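 further: plate controls were enzyme without inhibitor for no effect and buffer without enzyme for full effect; nearly all actives have a fitted effect of over 40% in size; top concentration of the series not given in the record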
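Purified cruzain at 1.5 nM, pre-incubated 15 min with compound at room temperature in 100 mM sodium acetate pH 5.5, 5 mM DTT, 0.00005% Triton X-100. Reaction started with 2 uM Z-FR-AMC; AMC fluorescence increase over 60 s gives rate.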
Marburg entry inh: qHTS for inhibitors of binding or entry into cells for Marburg Virus; Marburg virus pseudotyped entry inhibition, cell reporter; control for the full effect not named in the record; about a third of the inactives were read at about 46 µM; Potency, µM (top dose mostly 37.8 µM), for the others: at the top dose activity change, negative = inhibition, actives largely listed as inhibitors; 300,000 compounds, 1.8% hits; active = well fitted inhibition curve with a large enough effect; inconclusive = small, poorly fitted or top-dose-only effect, or effect the other way; inactive = flat fitted curve, though single readings scatter; tested in HEK293 cells; about a fifth of its hits are not listed in these tables; further: on the % scale 0 is the no-effect control and ±100 the full control effect; luciferase read-out
StopGo reporter: High Throughput Screening for Foot and Mouth Disease Virus Antivirals; human cells with a luciferase reporter of 2A StopGo recoding; control for the full effect not named in the record; Potency, µM (series often up to 57.9 µM), without a hit: at the top dose signal change, negative = less light; 410,000 compounds, 1.2% hits; AID 1159524, 2015; active = well fitted falling curve with a large enough effect; inconclusive = small, poorly fitted or top-dose-only effect; inactive = no such curve, though single readings can be large or run the other way; tested in HEK293T cells; further: on the % scale 0 is the no-effect control and ±100 the full control effect; nearly all actives have a fitted effect of over 45% in size; luciferase light after 4 h
NS1 inh: qHTS Assay for Inhibitors of Influenza NS1 Protein Function; S. cerevisiae slowed by influenza A NS1, growth recovery by OD600; Potency, µM (doses to about 46.1 µM), for the others: at the top dose activity, positive = more growth; 270,000 compounds, 0.4% hits; active means well fitted rising curve with a large enough effect; inconclusive means small, poorly fitted or top-dose-only effect; inactive means no such curve, though single readings can be large or run the other way; further: nearly all actives have a fitted effect of over 50% in size
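OD600 was taken as the measure of yeast growth restored by compound in an NS1-expressing S. cerevisiae strain. Cells had been washed out of glucose medium and diluted 1:100 into galactose -URA medium, pH 6.0.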
LASV entry inh: qHTS for Inhibitors of binding or entry into cells for Lassa Virus. Lassa virus pseudotype entry inhibition, cell reporter; control for the full effect not named in the record. Potency, µM (top dose mostly 37.9 µM), inactives show top-dose activity change, negative = inhibition, actives largely listed as inhibitors. 300,000 compounds, 1.2% hits. AID 540256, 2011; active means well fitted inhibition curve with a large enough effect; inconclusive means small, poorly fitted or top-dose-only effect, or effect the other way; inactive means flat fitted curve, though single readings scatter; tested in HEK293 cells; further: on the % scale 0 is the no-effect control and ±100 the full control effect; nearly all actives have a fitted effect of over 50% in size; luciferase read-out
RE007 growth inh: qHTS Assay for Inhibitors of the HIV-1 protein Vpr; Potency, µM (highest dose often 92.2 µM), for inactives: top-dose activity change, negative = less growth; S. pombe RE007 Vpr strain, BacTiter-Glo ATP luminescence, 24 h; control for the full effect not named in the record; 360,000 compounds, 0.21% hits; AID 651644, 2012; active = well fitted falling curve with a large enough effect; inconclusive = small, poorly fitted or top-dose-only effect; inactive = no such curve, though single readings can be large or run the other way;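 further: on the % scale 0 is the no-effect control and ±100 the full control effect; nearly all actives have a fitted effect of over 50% in size; the assay follows cell death caused by Vpr and the record does not say whether a fall means rescue or toxicity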
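Fission yeast strain RE007, carrying one chromosomally integrated HIV-1 vpr copy, was seeded at OD 0.01 in PMG+AL medium with 23 nL pinned compound. After 24 h at 30 °C and 99% humidity, viability was read by BacTiter-Glo luminescence.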
Starred values were filed as active, the others as inactive; ? = inconclusive; . = not tested or not shown; & = joins results of further samples; [ ] = remark or other dose. Unless noted, the call rests on the fitted dose curve; in most records, active means well fitted curve in the direction sought with a large enough effect; inconclusive means small, poorly fitted or top-dose-only effect, or another doubt; inactive means no such curve, though single readings can be large; an effect the other way counts as inactive or inconclusive. Potency means the concentration at half of the fitted maximal effect.

SMILES | Cruzain inh Det | SARS PLP yeast | Cruzain noTriton | Marburg entry inh | StopGo reporter | NS1 inh | LASV entry inh | RE007 growth inh
COCCn1nnnc1CN(Cc1ccco1)Cc1cc2cc3c(cc2[nH]c1=O)OCO3 | -3.9% | 0% | 7% | 2% | -10% | -3% | 0% | -14%
Nc1c(C(=O)NC2CC2)c2nc3ccccc3nc2n1-c1ccc2c(c1)OCO2 | -2.9% | 13% | ? | -14% | ? | -52% | -5% | -2%
O=C(N/N=C/c1ccco1)C12CC3CC(CC(C3)C1)C2 | . | 1% | . | 11%[46.1 µM] | 25% | . | -3% | 25%
Nc1nc(Nc2ccccc2F)nc(NC2CCCCC2)c1[N+](=O)[O-] | . | 0% | . | ? | ? | 7% | ? | 0%
Cc1ccc(-n2c(-c3ccccc3)c[n+]3c2CCc2ccccc2-3)c(C)c1 | . | -8% | . | ? | 2.8µM* | -4% | 1µM* | -16%
CC[N+](CC)(CC)CCCOC(=O)C(O)(c1ccccc1)C1CCCCC1 (centres undefined) | -0.4% | -3% | -6% | -1% | -5% | 1% | ? | -5%
Fc1cc(Br)ccc1COc1ccc(-c2nnco2)cc1 | . | 1% | . | . | 23% | 1% | . | -6%
CCC(=O)Nc1c(C#N)c2nc3ccccc3nc2n1C1CCCCC1 | 3.2% | -1% | 5% | ? | -21% | 9% | 2% | 12%
Cc1ccc(NC(=O)c2cc(N3CCOCC3)nc3ccccc23)cc1 | -3.7% | 0% | ? | -17%&-17% | -8% | -2% | ? | 9%
O=C(Nc1ccc(S(=O)(=O)Nc2nccs2)cc1)c1cc(-c2ccncc2)nc2ccccc12 | . | -1% | . | . | 8% | 9% | . | 5%
O=C(NCCSc1ccccn1)c1ccc(Cl)cc1Cl | . | 0% | . | ? | 36%[activator] | . | -13% | 3%
O=C(NC(=S)NCCc1ccccn1)c1ccccc1 | . | 21% | . | -6%[46.1 µM] | 34%[activator] | . | ? | -21%

3 compounds drawn at random from those above:
SMILES | Cruzain inh Det | SARS PLP yeast | Cruzain noTriton | Marburg entry inh | StopGo reporter | NS1 inh | LASV entry inh | RE007 growth inh
Nc1c(C(=O)NC2CC2)c2nc3ccccc3nc2n1-c1ccc2c(c1)OCO2 | -2.9% | 13% | ? | -14% | ? | -52% | -5% | -2%
Cc1ccc(NC(=O)c2cc(N3CCOCC3)nc3ccccc23)cc1 | -3.7% | 0% | ? | -17%&-17% | -8% | -2% | ? | 9%
Cc1ccc(-n2c(-c3ccccc3)c[n+]3c2CCc2ccccc2-3)c(C)c1 | . | -8% | . | ? | 2.8µM* | -4% | 1µM* | -16%

Carrying on:
SMILES | Cruzain inh Det | SARS PLP yeast | Cruzain noTriton | Marburg entry inh | StopGo reporter | NS1 inh | LASV entry inh | RE007 growth inh
COc1ccc(CN2CCN(S(=O)(=O)c3ccccc3)CC2)c(OC)c1OC | . | . | . | ? | -28% | . | -22% | -11%
CCN(C(=O)CSc1cc(C)c2cccc(C)c2n1)C1CCS(=O)(=O)C1 (centres undefined) | . | 2% | . | -23%[46.1 µM] | 0% | 5% | ? | 8%
O=C(Nc1cccc2ccccc12)NC1CCCc2ccccc21 (centres undefined) | 7.8% | 6% | 13µM* | 7% | 3% | 3% | -22% | 19%
COCCn1c(=O)[nH]c2cc(C(=O)N3CCN(c4cc(C)ccc4C)CC3)ccc2c1=O | . | -2% | . | -3%[46.1 µM] | ? | -9% | . | 30%
O=C(Nc1ccc(N2CCN(C(=O)c3ccccc3)CC2)cc1)c1ccc2c(c1)OCCO2 | . | 15% | . | ? | 32µM* | ? | ? | -25%
CCc1ccc(C(=O)C(C)OC(=O)c2cccc(S(=O)(=O)N3CCOCC3)c2)cc1 (centres undefined) | . | 4% | . | 4%[46.1 µM] | -6% | . | ? | 14%
O=C(CN1CCN(c2ccc(F)cc2)CC1)Nc1ccccc1 | . | -3% | . | . | -8% | 2% | . | 0%
CCc1n[nH]c(=S)n1/N=C/c1ccc(N(CC)CC)cc1 | . | 1% | . | -4% | 22% | . | ? | 7%
CCOC(=O)c1ccc(NC(=O)CC2C(=O)N(c3ccc(F)cc3)C(=O)N2Cc2ccc3c(c2)OCO3)cc1 (centres undefined) | 0.1% | . | 14% | ? | -26% | . | -3%[46.1 µM] | .
COC(=O)C1=C(C)NC(=O)NC1c1c(O)ccc2ccccc12 (centres undefined) | . | 0% | . | . | -3% | 20% | . | -14%
COc1ccc(C)cc1NC(=O)CNC(C)C(=O)Nc1ccc(C(C)=O)cc1 (centres undefined) | . | 1% | . | . | -4% | -6% | . | -7%
CCCCOc1cccc(C(=O)Nc2ccc(S(=O)(=O)Nc3cc(C)on3)cc2)c1 | . | 3% | . | 2%[46.1 µM] | -2% | 3% | -1%[46.1 µM] | 16%

Single records, from the list above. Values in the order: Cruzain inh Det | SARS PLP yeast | Cruzain noTriton | Marburg entry inh | StopGo reporter | NS1 inh | LASV entry inh | RE007 growth inh
Entry for `CCCCOc1cccc(C(=O)Nc2ccc(S(=O)(=O)Nc3cc(C)on3)cc2)c1` : . | 3% | . | 2%[46.1 µM] | -2% | 3% | -1%[46.1 µM] | 16%
Entry for `COc1ccc(C)cc1NC(=O)CNC(C)C(=O)Nc1ccc(C(C)=O)cc1` (centres undefined) : . | 1% | . | . | -4% | -6% | . | -7%
Entry for `O=C(Nc1ccc(N2CCN(C(=O)c3ccccc3)CC2)cc1)c1ccc2c(c1)OCCO2` : . | 15% | . | ? | 32µM* | ? | ? | -25%
Entry for `COCCn1c(=O)[nH]c2cc(C(=O)N3CCN(c4cc(C)ccc4C)CC3)ccc2c1=O` : . | -2% | . | -3%[46.1 µM] | ? | -9% | . | 30%
Entry for `O=C(CN1CCN(c2ccc(F)cc2)CC1)Nc1ccccc1` : . | -3% | . | . | -8% | 2% | . | 0%

Next entries follow.
SMILES | Cruzain inh Det | SARS PLP yeast | Cruzain noTriton | Marburg entry inh | StopGo reporter | NS1 inh | LASV entry inh | RE007 growth inh
CC1CN(S(=O)(=O)c2ccc(CN3C(=O)c4cccnc4C3=O)cc2)c2ccccc2O1 (centres undefined) | . | -1% | . | 26%[46.1 µM] | 1% | 9% | 6%[46.1 µM] | -3%
COC(=O)c1ccccc1N1C(=O)C2C(C1=O)[C@H]1C=C[C@@H]2C1 (some centres undefined) | 8.2% | 5% | -3% | 7% | -13% | 9% | 5% | 8%
Clc1ccc(OCCn2cnc3ccccc32)c(Cl)c1 | -22% | -22% | ? | -14% | 40%[activator] | -34% | 9% | ?
COc1cc(C(=O)NCc2ccc(-c3nc4ccccc4s3)cc2)cc(OC)c1OC | 0.6% | 8% | ? | -1% | 7% | 1% | -14% | 1%
CCOc1ccc(N2CC(C(=O)NCc3nnnn3-c3ccc(C)c(C)c3)CC2=O)cc1 (centres undefined) | 2.6% | 0% | ? | . | 6%&-3% | -20% | ? | 1%
COc1ccccc1CC(=O)N1CCN(S(=O)(=O)c2cccs2)CC1 | . | 5% | . | 9% | 2% | 18% | 10% | 0%
Cc1ccccc1NC(=O)/C(C#N)=C/c1ccc[nH]1 | . | 23% | . | . | 15% | -3% | . | 3%
CCC(C)Nc1nc(Cl)nc(N(C#N)CN2C(=O)c3ccccc3S2(=O)=O)n1 (centres undefined) | . | -1% | . | ? | ? | -15% | 0%[46.1 µM] | -3%
CC(=O)N1CCc2cc(Br)cc(S(=O)(=O)CCC(=O)Nc3c(C)n(C)n(-c4ccccc4)c3=O)c21 | . | -1% | . | 21%[46.1 µM] | 3% | . | 8% | 1%
O=C(Nc1ccc2nc(-c3ccc(Br)o3)[nH]c2c1)c1ccco1 | 1.1% | -5% | -6% | ? | -15% | -119% | ? | 2%
COc1cccc(NC(=O)N2CCC(C(=O)Nc3ccc(C)cc3C)CC2)c1 | -1.6% | 0% | 3% | 19% | 2% | -17% | 4% | 3%
CC(=O)Nc1cccc(C(=O)N/N=C/c2cccc(C)n2)c1 | . | 0% | . | 9%[46.1 µM] | 1% | 7% | 23%[46.1 µM] | -4%
CCC(OC(=O)c1ccco1)C(=O)NCc1ccc2c(c1)OCO2 (centres undefined) | . | 5% | . | -1%[46.1 µM] | 0% | -7% | 20%[46.1 µM] | 16%
COc1ccc(C(=O)N2C(=S)NC(=O)/C2=C\c2ccc(C)cc2)cc1 | -7.8% | -15% | -11% | 20% | -7% | 4% | 23% | 6%
COc1ccc(-c2noc(N3CCCC(C(=O)Nc4ccc(F)cc4F)C3)n2)cc1 (centres undefined) | . | 0% | . | . | -11% | -25% | . | 0%
COc1cc(OC)cc(C(=O)Nn2cc(C(=O)Nc3c(F)cccc3F)c3ccccc3c2=O)c1 | -2.6% | 1% | 1% | 11% | -16% | 2% | 3% | -12%
COc1ccc(C)c2sc(N(Cc3cccnc3)C(=O)CCc3ccccc3)nc12 | -2.4% | . | 24% | . | -7% | . | 0%[46.1 µM] | .
CCOC(=O)c1ccc(NC(=O)COc2cccc3c(=O)n(C)ccc23)cc1 | -9.2% | . | ? | . | ? | . | -14%[46.1 µM] | .
COc1cccc(N2CCN(C(=O)c3nc4nc(C)cc(C)n4n3)CC2)c1 | . | 5% | . | -13%[46.1 µM] | -5% | . | 16%[46.1 µM] | -6%
CCC(=O)N1CCc2cc(S(=O)(=O)CCC(=O)N3CCN(c4ccc(Cl)cc4)CC3)ccc21 | -3.5% | 2% | ? | ? | ? | 15% | -8%[46.1 µM] | -7%
O=C(Nc1ccccc1N1CCCC1)c1cc(Cl)ccc1Cl | . | -1% | . | . | -7% | -4% | . | -6%
Cc1ccc2nc(-c3ccc(Cl)c(NC(=O)COc4ccc([N+](=O)[O-])cc4)c3)oc2c1 | 0.4% | . | 18% | ? | 28% | . | 18%[46.1 µM] | .
COCCNC(=O)C(c1ccccc1)N(Cc1cccs1)C(=O)Cn1nnc2ccccc21 (centres undefined) | 3.8% | -7% | -15% | 3% | 12% | -8% | 0% | 6%
